Compound activity as filed in PubChem BioAssay.
FGF22 binding = FGF22 (human) thermal shift binding; Q9HCT0; recombinant FGF22 thermal shift, SYPRO orange fluorescence; percent of sucrose octasulfate shift, DMSO zero; calls only at 9.99 µM; 1.5% of 340,000 active; AID 651658;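 active = melting point raised past a set limit in the mean and every replicate; three in four hits are not shown here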
Target sequence (Q9HCT0 whole entry, looked up): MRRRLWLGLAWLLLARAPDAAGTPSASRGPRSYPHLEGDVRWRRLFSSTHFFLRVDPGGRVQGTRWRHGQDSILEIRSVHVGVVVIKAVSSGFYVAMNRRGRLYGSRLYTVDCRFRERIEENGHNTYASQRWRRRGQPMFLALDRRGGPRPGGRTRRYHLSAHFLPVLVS
Calls only; i = inactive. Not all compounds are listed (hit frequency here may not be typical).

| FGF22 binding | SMILES |
| --- | --- |
| i | C[C@H]1CCCCO[C@H](CN(C)Cc2ccncc2)[C@@H](C)CN([C@@H](C)CO)C(=O)c2cc(NC(=O)Nc3cccc4ccccc34)ccc2O1 |
| i | N#C[C@H]1[C@@H](c2ccccc2)[C@@H](CO)N1S(=O)(=O)c1ccc(-c2ccccc2)cc1 |
| i | Cc1ccc(S(=O)(=O)N2C[C@H](O)COC[C@H]3O[C@H](CC(=O)NCCCN(C)C)CC[C@@H]32)cc1 |
| i | C[C@@H]1CCCCO[C@H](CN(C)C)[C@H](C)CN([C@@H](C)CO)C(=O)c2cc(NC(=O)Cc3ccccc3)ccc2O1 |
| i | COCC(=O)N1[C@@H](CO)[C@H](c2ccccc2)[C@@H]1CN(C)C(=O)c1cccnc1 |
| i | COC(=O)C[C@H]1C[C@@H]2c3cc(N)ccc3O[C@@H]2[C@H](CO)O1 |
| i | C[C@H]1CN([C@@H](C)CO)C(=O)c2cc(NC(=O)C3CCCCC3)ccc2O[C@H]1CN(C)Cc1ccc(C(=O)Nc2ccccc2N)cc1 |
| i | C[C@H](O)C#Cc1ccc2c(c1)O[C@@H](CN(C)C(=O)C1CCC1)[C@@H](C)CN([C@H](C)CO)S2(=O)=O |
| i | CN(C)C(=O)C[C@@H]1CC[C@@H](NC(=O)NC2CCCCC2)[C@H](CO)O1 |
| i | CN1CCN(C(=O)C[C@@H]2CC[C@@H]3[C@H](COC[C@H](O)CN3C(=O)C3CC3)O2)CC1 |
| i | C[C@H]1CN([C@@H](C)CO)S(=O)(=O)c2ccc(-c3cncnc3)cc2O[C@H]1CN(C)Cc1cccnc1 |
| i | CCNC(=O)C[C@H]1CC[C@@H]2[C@H](COc3ccc(NC(=O)c4ccccc4Cl)cc3C(=O)N2C)O1 |
| i | C[C@H]1CCCCO[C@H](CN(C)C(=O)CCCN(C)C)[C@@H](C)CN([C@@H](C)CO)C(=O)c2cc(NC(=O)c3ccncc3)ccc2O1 |
| i | COc1ccc(-c2cnc3c(c2)C(=O)N([C@H](C)CO)C[C@@H](C)[C@H](CN(C)C(=O)Cc2ccccc2)O3)cc1 |
| i | COc1ccccc1CNC(=O)C[C@@H]1CC[C@H](NC(=O)CC2CC2)[C@H](CO)O1 |
| i | Cc1cc(C(=O)Nc2ccc3c(c2)C(=O)N(C)[C@@H]2CC[C@@H](CC(=O)NC4CCCC4)O[C@H]2CO3)no1 |
| i | CN1CCN(C(=O)C[C@@H]2C=C[C@@H](NC(=O)Nc3ccccc3F)[C@H](CO)O2)CC1 |
| i | C[C@H](CO)N1C[C@H](C)[C@H](CN(C)Cc2ccccn2)Oc2cc(C3=CCCC3)ccc2S1(=O)=O |
| i | O=C(CCCCCn1c(=O)[nH]c2ccccc2c1=O)NC1CCCC1 |
| i | COCc1cn(CC[C@H]2CC[C@H](NC(=O)CCN3CCCCC3)[C@@H](CO)O2)nn1 |
| i | C[C@H](CO)N1C[C@H](C)[C@@H](CN(C)C(=O)Nc2cccc3ccccc23)OCCCC[C@H](C)Oc2ccc(NC(=O)Nc3cccc4ccccc34)cc2C1=O |
| i | COc1ccc(NC(=O)Nc2ccc3c(c2)C(=O)N([C@H](C)CO)C[C@@H](C)[C@@H](CN(C)Cc2ccc(Oc4ccccc4)cc2)O3)cc1 |
| i | COC(=O)c1ccsc1NS(C)(=O)=O |
| i | Cc1noc(C)c1NC(=O)N[C@@H]1CC[C@H](CCNC(=O)C2CCOCC2)O[C@H]1CO |
| i | CO[C@H]1CN(C)C(=O)c2cc(NS(=O)(=O)c3ccc(C)cc3)ccc2OC[C@H](C)NC[C@H]1C |
| i | COc1ccccc1CNC(=O)C[C@@H]1CC[C@@H](NC(=O)CN(C)C)[C@H](CO)O1 |
| i | O=C(C[C@@H]1CC[C@H]2[C@@H](COC[C@@H](O)CN2S(=O)(=O)c2ccccc2)O1)NCc1ccc2c(c1)OCO2 |
| i | C[C@H](CO)N1C[C@H](C)[C@H](CN(C)C(=O)Nc2ccc3c(c2)OCO3)Oc2ccc(NS(C)(=O)=O)cc2C1=O |
| i | Cc1ccc(-c2cnc3c(c2)C(=O)N([C@@H](C)CO)C[C@@H](C)[C@@H](CN(C)C(=O)c2cccnc2)O3)cc1 |
| i | C[C@H](CO)N1C[C@H](C)[C@H](CN(C)C(=O)Nc2cccc3ccccc23)Oc2ncc(-c3cc4ccccc4o3)cc2C1=O |
| i | COc1ccc(S(=O)(=O)N(C)C[C@H]2Oc3ccc(NS(=O)(=O)c4ccc(C)cc4)cc3C(=O)N([C@@H](C)CO)C[C@@H]2C)cc1 |
| i | C[C@@H]1CN([C@H](C)CO)C(=O)c2cc(C#CCc3ccccc3)cnc2O[C@H]1CN(C)CC1CCCC1 |
| i | CN(C)CC(=O)N1CC[C@H]2[C@@H]1c1cc(Br)ccc1N(C)[C@H]2CO |
| i | Cc1noc(C)c1NC(=O)Nc1ccc2c(c1)C(=O)N([C@@H](C)CO)C[C@H](C)[C@H](CN(C)C(=O)Nc1ccc(F)cc1)O2 |
| i | CC=Cc1ccc2n(c1=O)C[C@@H]1[C@@H](CO)[C@H](C(=O)NCCC)N(CC3CC3)[C@H]21 (mixture of isomers) |
| i | COc1ccc(CN(C)C[C@@H]2Oc3ccc(NS(=O)(=O)c4ccc(F)cc4)cc3CC(=O)N([C@@H](C)CO)C[C@@H]2C)cc1 |
| i | CO[C@@H]1CN(C)C(=O)c2cc(NC(=O)Nc3c(C)noc3C)ccc2OC[C@H](C)N(CCC(F)(F)F)C[C@H]1C |
| i | Cc1noc(C)c1S(=O)(=O)Nc1ccc2c(c1)CC(=O)N([C@@H](C)CO)C[C@@H](C)[C@H](CN(C)Cc1ccc(Cl)c(Cl)c1)O2 |
| i | COCC(=O)N(C)C[C@H]1Oc2cc(-c3ccc(C)cc3)ccc2S(=O)(=O)N([C@H](C)CO)C[C@@H]1C |
| i | COCC(=O)N(C)C[C@@H]1Oc2ncc(C#Cc3ccccc3OC)cc2C(=O)N([C@@H](C)CO)C[C@@H]1C |
| i | C[C@@H]1CN([C@@H](C)CO)C(=O)Cc2cc(NC(=O)CCC(F)(F)F)ccc2O[C@@H]1CN(C)Cc1ccccc1 |
| i | CCCNC(=O)C[C@@H]1CC[C@@H]2[C@@H](COc3ccc(NC(=O)c4cccs4)cc3C(=O)N2C)O1 |
| i | CNC(=O)C[C@@H]1CC[C@H]2[C@@H](COc3ccc(NC(=O)Nc4c(C)noc4C)cc3C(=O)N2C)O1 |
| i | C[C@@H]1CCCCO[C@@H](CN(C)C(=O)Nc2ccc(C(F)(F)F)cc2)[C@H](C)CN([C@H](C)CO)C(=O)c2cc(NC(=O)Nc3ccccc3)ccc2O1 |
| i | CO[C@H]1CN(C)C(=O)c2ccc(NC(=O)C3CC3)cc2OC[C@@H](C)N(Cc2ccncc2)C[C@H]1C |
| i | O=C(N[C@H]1CC[C@@H](CCNS(=O)(=O)c2ccc(F)cc2)O[C@@H]1CO)C1CC1 |
| i | COc1ccc(S(=O)(=O)Nc2ccc3c(c2)C(=O)N([C@H](C)CO)C[C@@H](C)[C@H](CN(C)Cc2ccc(C(=O)O)cc2)O3)cc1 |
| i | C[C@@H]1CN([C@@H](C)CO)C(=O)c2cc(NC(=O)c3ccncc3)ccc2O[C@H]1CN(C)Cc1ccc(Oc2ccccc2)cc1 |
| i | CCCNC(=O)N(C)C[C@@H]1Oc2ncc(C#CC3CCCCC3)cc2C(=O)N([C@@H](C)CO)C[C@@H]1C |
| i | Cc1ccc(S(=O)(=O)N(C)C[C@@H]2Oc3ccc(NC(=O)Cc4ccccc4)cc3C(=O)N([C@H](C)CO)C[C@H]2C)cc1 |
| i | CCC(=O)N1[C@@H](CO)[C@@H](c2ccccc2)C12CN(C(=O)c1ccc3c(c1)OCO3)C2 |
| i | COC(=O)C1=C(C)N(Cc2ccccc2C(F)(F)F)C(=NCc2cccc(C(F)(F)F)c2)NC1CCc1ccccc1 (stereo not drawn) |
| i | CC(C)(O)C#Cc1ccc([C@H]2[C@H]3CN(C(=O)c4ccc(F)cc4)CCCCN3[C@H]2CO)cc1 |
| i | O=C(c1cnccn1)N1CC(=O)N2[C@H](C1)[C@H](c1ccc(C#CCc3ccccc3)cc1)[C@@H]2CO |
| i | CC(=O)Nc1ccc2c(c1)C(=O)N(C)[C@H]1CC[C@@H](CC(=O)NCc3ccccc3Cl)O[C@@H]1CO2 |
| i | O=C(C[C@@H]1CC[C@@H](NC(=O)C2CC2)[C@@H](CO)O1)NC1CCC1 |
| i | COc1ccc2c3c([nH]c2c1)[C@H](CO)N(Cc1ccc(Cl)cc1)CC31CCN(C(=O)CN(C)C)CC1 |
| i | C[C@H](CO)N1C[C@H](C)[C@H](CN(C)Cc2ccc3c(c2)OCO3)Oc2ccc(NS(=O)(=O)c3ccc(F)cc3)cc2C1=O |
| i | O=C(NCC[C@H]1CC[C@H](NS(=O)(=O)c2ccc(Oc3ccccc3)cc2)[C@@H](CO)O1)C1CC1 |
| i | C[C@@H]1CN([C@H](C)CO)C(=O)Cc2cc(NC(=O)Nc3cccc4ccccc34)ccc2O[C@@H]1CN(C)S(=O)(=O)c1cccs1 |

Molecules listed so far that have fluorine:
| FGF22 binding | SMILES |
| --- | --- |
| i | CN1CCN(C(=O)C[C@@H]2C=C[C@@H](NC(=O)Nc3ccccc3F)[C@H](CO)O2)CC1 |
| i | Cc1noc(C)c1NC(=O)Nc1ccc2c(c1)C(=O)N([C@@H](C)CO)C[C@H](C)[C@H](CN(C)C(=O)Nc1ccc(F)cc1)O2 |
| i | COc1ccc(CN(C)C[C@@H]2Oc3ccc(NS(=O)(=O)c4ccc(F)cc4)cc3CC(=O)N([C@@H](C)CO)C[C@@H]2C)cc1 |
| i | CO[C@@H]1CN(C)C(=O)c2cc(NC(=O)Nc3c(C)noc3C)ccc2OC[C@H](C)N(CCC(F)(F)F)C[C@H]1C |
| i | C[C@@H]1CN([C@@H](C)CO)C(=O)Cc2cc(NC(=O)CCC(F)(F)F)ccc2O[C@@H]1CN(C)Cc1ccccc1 |
| i | C[C@@H]1CCCCO[C@@H](CN(C)C(=O)Nc2ccc(C(F)(F)F)cc2)[C@H](C)CN([C@H](C)CO)C(=O)c2cc(NC(=O)Nc3ccccc3)ccc2O1 |
| i | O=C(N[C@H]1CC[C@@H](CCNS(=O)(=O)c2ccc(F)cc2)O[C@@H]1CO)C1CC1 |
| i | COC(=O)C1=C(C)N(Cc2ccccc2C(F)(F)F)C(=NCc2cccc(C(F)(F)F)c2)NC1CCc1ccccc1 (stereo not drawn) |
| i | CC(C)(O)C#Cc1ccc([C@H]2[C@H]3CN(C(=O)c4ccc(F)cc4)CCCCN3[C@H]2CO)cc1 |
| i | C[C@H](CO)N1C[C@H](C)[C@H](CN(C)Cc2ccc3c(c2)OCO3)Oc2ccc(NS(=O)(=O)c3ccc(F)cc3)cc2C1=O |

Next section
| FGF22 binding | SMILES |
| --- | --- |
| i | O=C(c1ccccc1F)N1CC[C@@H]2[C@H](CO)Nc3ccc(Br)cc3[C@@H]21 |
| i | CN(C)C(=O)c1cc2c(c(-c3cccc(-c4ccc(F)cc4)c3)n1)[C@@H](CCO)N([S@](=O)C(C)(C)C)C2 |
| i | O=C(CCN1CCCCC1)NCC[C@@H]1CC[C@@H](NC(=O)C2CCOCC2)[C@H](CO)O1 |
| i | Cc1cccc(-c2ccc([C@H]3[C@H]4CN(C(=O)c5ccc6c(c5)OCO6)CC(=O)N4[C@H]3CO)cc2)c1 |
| i | O=C(NCCc1ccccc1)[C@@H]1[C@@H](CO)[C@@H]2Cn3c(cccc3=O)[C@H]1N2C(=O)C1CCCC1 |
| i | C[C@H](CO)N1C[C@H](C)[C@@H](CN(C)Cc2ccc3c(c2)OCO3)Oc2ncc(C#CCN(C)C)cc2C1=O |
| i | Cc1ccc(S(=O)(=O)Nc2ccc3c(c2)CC(=O)N([C@H](C)CO)C[C@@H](C)[C@@H](CN(C)S(=O)(=O)c2cn(C)cn2)O3)cc1 |
| i | CC(C)NC(=O)N1[C@H](C(=O)N2CCc3ccccc3C2)[C@@H](CO)[C@@H]2Cn3c(cccc3=O)[C@@H]21 |
| i | CO[C@@H]1CN(C)C(=O)c2ccc(NC(=O)C3CCC3)cc2OC[C@@H](C)N(S(=O)(=O)c2ccc(Cl)cc2)C[C@H]1C |
| i | COc1ccc(S(=O)(=O)Nc2cccc3c2O[C@@H](CN(C)S(=O)(=O)c2ccccc2)[C@H](C)CN([C@H](C)CO)C3=O)cc1 |
| i | CCOC(=O)C1CSCCS(=O)(=O)N1Cc1cc(F)ccc1Br (stereo not drawn) |
| i | C[C@@H]1CN([C@H](C)CO)C(=O)c2cc(NC(=O)Nc3ccc(C(F)(F)F)cc3)ccc2O[C@@H]1CN(C)C(=O)Nc1ccccc1 |
| i | C[C@H]1CCCCO[C@H](CN(C)C(=O)Cc2ccccc2)[C@@H](C)CN([C@@H](C)CO)C(=O)c2cc(NS(C)(=O)=O)ccc2O1 |
| i | C[C@@H]1CCCCO[C@@H](CN(C)S(=O)(=O)c2ccc(Cl)cc2)[C@H](C)CN([C@@H](C)CO)C(=O)c2cc(NS(=O)(=O)c3ccc(Cl)cc3)ccc2O1 |
| i | CCCc1cn(CC[C@@H]2CC[C@@H](NC(=O)C3CCCC3)[C@@H](CO)O2)nn1 |
| i | Cc1noc(C)c1NC(=O)N(C)C[C@@H]1Oc2ccc(NS(=O)(=O)c3cn(C)cn3)cc2C(=O)N([C@H](C)CO)C[C@@H]1C |
| i | C[C@H]1CN([C@@H](C)CO)C(=O)Cc2cc(NC(=O)Nc3ccc(C(F)(F)F)cc3)ccc2O[C@H]1CN(C)Cc1ccc(Oc2ccccc2)cc1 |
| i | CNC(=O)C[C@@H]1CC[C@H]2[C@H](COc3ccc(NC(=O)NC(C)C)cc3C(=O)N2C)O1 |
| i | C[C@H]1CN([C@@H](C)CO)S(=O)(=O)c2ccc(/C=C/c3ccccc3)cc2O[C@H]1CN(C)Cc1cccnc1 |
| i | CN1C(=O)c2cc(NC(=O)c3cccc(F)c3)ccc2OC[C@H]2O[C@H](CC(=O)NCc3ccccc3Cl)CC[C@H]21 |
| i | O=C(C[C@@H]1C=C[C@@H](NC(=O)Nc2ccc3c(c2)OCO3)[C@@H](CO)O1)NCCCN1CCOCC1 |
| i | OC[C@H]1[C@@H](c2ccc(-c3ccccc3F)cc2)[C@@H]2CN(Cc3cncnc3)CCCCN12 |
| i | CCOC(=O)Cc1csc2nc(-c3ccccc3)cn12 |
| i | CNC[C@H]1Oc2cc(C#CC3CCCC3)ccc2S(=O)(=O)N([C@@H](C)CO)C[C@@H]1C |
| i | C[C@H](CO)N1C[C@H](C)[C@H](CN(C)Cc2cccnc2)Oc2ncc(C#CC3(O)CCCC3)cc2C1=O |
